# High-throughput results deposited in PubChem by several laboratories.
# Yeast UUG start – alters start codon recognition fidelity in yeast. activity score, % at 18.7 µM. 350,000 tested, 0.13% active. AID 602363. S. cerevisiae UUG-firefly luciferase reporter, luminescence/redox ratio;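 active means replicate mean at a twofold rise or more, about +100% in these data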;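 further: firefly luciferase made from a UUG start codon reports start codon fidelity; reporter light over untreated wells divided by growth signal over untreated wells; some hits fall short of that in this replicate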
# PABP FP inh – blocks human PABP binding to poly(A) RNA; fluorescence polarization; AID 2014; 290,000 tested, 1% active; inhibition, % at 35 µM;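 active means 50% or more with normal probe brightness, or confirmed in later tests; about a fifth of its hits are not listed in these tables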;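 further: calls also rest on retests at 20 µM and on dose response follow-up; controls were probe without protein and protein plus probe with vehicle; some compounds called inactive have numbers as strong as hits; many hits fall short of the cut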
# Target sequence (P11940 whole entry, looked up): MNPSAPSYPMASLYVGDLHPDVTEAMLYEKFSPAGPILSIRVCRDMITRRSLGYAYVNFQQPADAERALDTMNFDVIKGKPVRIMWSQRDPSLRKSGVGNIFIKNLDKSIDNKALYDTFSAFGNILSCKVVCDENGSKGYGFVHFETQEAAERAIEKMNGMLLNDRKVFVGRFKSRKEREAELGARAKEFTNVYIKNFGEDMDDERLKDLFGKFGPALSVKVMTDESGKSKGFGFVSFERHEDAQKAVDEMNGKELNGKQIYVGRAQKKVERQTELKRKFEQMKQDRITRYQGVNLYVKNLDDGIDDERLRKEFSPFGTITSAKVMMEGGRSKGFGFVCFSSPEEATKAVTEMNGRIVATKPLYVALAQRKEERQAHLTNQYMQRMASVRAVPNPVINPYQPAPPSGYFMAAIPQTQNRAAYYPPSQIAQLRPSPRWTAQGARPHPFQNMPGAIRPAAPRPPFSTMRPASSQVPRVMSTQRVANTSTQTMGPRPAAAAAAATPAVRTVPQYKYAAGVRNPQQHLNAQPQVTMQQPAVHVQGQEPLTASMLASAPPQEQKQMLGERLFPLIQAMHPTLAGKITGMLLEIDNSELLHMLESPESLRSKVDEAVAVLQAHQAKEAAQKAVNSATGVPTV
# CSC inhib – blocks cancer stem cells | AID 2717 | 300,000 tested, 1.1% active | cancer stem cell-like cells viability, luminescence | inhibition, % at 7.5 µM;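 active means mean at 75% or more and at least half the replicates too; tested in HMLE shEcad cells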;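 further: 0% = median of negative and 100% = median of positive control wells; the first replicate is given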
# eIF4H inh – inhibitors of RNA binding by human eIF4H. Q15056. eIF4H fluorescence polarization binding assay. inhibition, % at 35 µM. 290,000 tested, 0.94% active. AID 2012;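 active means 50% or more with normal probe brightness, or confirmed in later tests; about a fifth of its hits are not listed in these tables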;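 further: calls also rest on retests at 20 µM and on dose response follow-up; 0% = protein and probe with vehicle and 100% = probe without protein; strong numbers were not always called active; many hits fall short of the cut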
# Env fusion inh – inhibitors of HIV Env-mediated cell fusion; HeLa-JRFL Env/CEM21 cell fusion, luciferase; inhibition, % at 12.3 µM; 360,000 tested, 1.1% active;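 active means mean replicate inhibition score of at least 50 and every replicate individually at or above 50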;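 further: 0% = plate neutral controls and 100% = maraviroc near 300 nM; one replicate is shown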
# Rce1 inhib – inhibitors of yeast Ras-converting enzyme | AID 2563 | 290,000 tested, 0.27% active | Q03530 | calls only | yeast membranes, quenched prenylated peptide cleavage fluorescence;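 active means fall in fluorescence gain of 50% or more versus controls, with final raw signal at or below 3038400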;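 further: plate controls were neutral control wells for no effect and wells lacking membranes for full effect; tested at 10 µM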
# MT1-MMP act inh – blocks activation of human MT1-MMP | P50281 | GFP/RFP ratio change, % at 20 µM | HT1080 RFP-PRO-GFP cells, GFP/RFP ratio fluorescence, overnight; percent of plate control window, DMSO zero | 360,000 tested, 0.061% active;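 active means GFP/RFP ratio change of at least 30% with cell ATP level not reduced by more than half and red fluorescence within 50% of control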; further: strong numbers were not always called active
#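 system = RFP-PRO-GFP reporter HT1080 cells | dosing = 20 µM single dose, 1% DMSO | timing = overnight cell settling, then overnight compound exposure, 37 °C, 5% CO2 | read-out basis = GFP/RFP fluorescence ratio | controls = DMSO and RFP-L50D-GFP cell wells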
# eIF4H inh retest – also measured in eIF4H inh; calls as there; inhibition, %; compound at 20 µM; confirmation average;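 mean of two retest wells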
# PABP FP inh retest – also measured in PABP FP inh; calls as there; inhibition, %; compound at 20 µM; confirmation repeats;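 mean of two retest wells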
# MT1-MMP act inh RFP – recorded beside MT1-MMP act inh, whose call it bears; RFP signal change, %; measured here: RFP expression control read;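 0 = vehicle wells; hits needed this value within 50% of zero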
# * marks the source's active call; other numbers are inactive results; i = inactive; nt = not tested or not shown.
# Start of the data: the first two records (preview)
SMILES,Yeast UUG start,PABP FP inh,CSC inhib,eIF4H inh,Env fusion inh,Rce1 inhib,MT1-MMP act inh,MT1-MMP act inh RFP,others
O=C(Oc1c(CN2CCOCC2)cc(Cl)c2cccnc12)c1ccc(F)cc1,-11,-8,17,7,18,i,-1,-4,
Cc1cccc(NC(=O)c2nc[nH]c2C(=O)N[C@@H](C)c2ccccc2)c1,-20,nt,78*,nt,-213,nt,3,1,

# All compounds of this part (from the top)
SMILES,Yeast UUG start,PABP FP inh,CSC inhib,eIF4H inh,Env fusion inh,Rce1 inhib,MT1-MMP act inh,MT1-MMP act inh RFP,others
O=C(Oc1c(CN2CCOCC2)cc(Cl)c2cccnc12)c1ccc(F)cc1,-11,-8,17,7,18,i,-1,-4,
Cc1cccc(NC(=O)c2nc[nH]c2C(=O)N[C@@H](C)c2ccccc2)c1,-20,nt,78*,nt,-213,nt,3,1,
O=C(NCCCN1CCOCC1)c1ccc(Sc2ccc(F)cc2)c([N+](=O)[O-])c1,nt,-2,46,0,4,i,-4,-2,
Cn1c(Cn2c(=O)sc3ccccc32)nnc1SCC(=O)NCc1ccco1,-14,-3,19,-12,-28,i,-2,4,
O=C(COc1ccc(-c2ccccc2)cc1)NNC(=O)Nc1ccccc1,-15,nt,3,nt,nt,nt,7,1,
O=[N+]([O-])c1ccc(Sc2ccccn2)nc1,-18,-4,-8,-4,-2,i,-2,-4,
COc1cccc(CNc2ccc(N3CCCCC3)cc2)c1OC,-26,-3,5,1,nt,nt,14,11,
CC(C)(C)c1ccc(S(=O)(=O)N2CCN(c3ncccn3)CC2)cc1,-3,8,-7,4,19,i,2,-1,
COc1ccc2nc(C)cc(Nc3cccc(C(=O)O)c3)c2c1,-20,0,-5,34,-7,i,2,0,
COC(=O)N/N=C/c1cc(C)n(-c2cccc3ccccc23)c1C,-10,-10,-3,3,-22,i,-3,0,
N#Cc1ccc(C(=O)NC(=S)NC2CCCCC2)cc1,-21,nt,-14,nt,nt,nt,2,-4,
O=C(NC(Cc1c[nH]c2ccccc12)C(=O)Nc1ccc(F)c([N+](=O)[O-])c1)c1cccs1 (centres undefined),nt,-4,39,96,15,i,-7,-11,eIF4H inh retest=-18;PABP FP inh retest=9
COc1ccc(C(CNC(=O)c2cccc(NS(=O)(=O)c3ccccc3)c2)N(C)C)cc1 (centres undefined),-5,-2,-4,-4,1,i,-4,1,
CC1=Nn2c(nnc2-c2cc(-c3ccccc3)n[nH]2)SC1,1,4,-10,-8,nt,i,-4,1,
COc1ccc(C)cc1NS(=O)(=O)c1ccc2c(c1)NC(=O)C(C)S2 (centres undefined),nt,1,3,1,1,i,-1,-12,
CC(=O)NC(c1ccc(F)c(F)c1)c1nc(-c2cccc(C(F)(F)F)c2)cs1 (centres undefined),-17,nt,nt,nt,25,nt,1,3,
O=C(NN=C1CCCCCC1)c1ccc(Br)o1,-18,6,nt,2,-17,i,0,6,
COc1ccc(C(=O)OCC(=O)NCC2CCCO2)cc1[N+](=O)[O-] (centres undefined),nt,2,-2,-8,-1,i,1,3,
COc1ccc(NC(=O)COC(=O)c2c(F)cccc2Cl)cc1OC,nt,-9,-11,4,-28,nt,nt,nt,
COc1ccc(NC(=O)CSc2nnc(CNc3ccc(F)cc3)o2)c(OC)c1,nt,8,0,-2,-27,i,-2,2,
N#Cc1ccccc1S(=O)(=O)N1CCN(C(=O)c2cc(-c3ccccc3)nn2-c2ccccc2)CC1,-13,0,11,2,-110,i,-7,-12,
CN(C)/C(=N\S(=O)(=O)c1ccccc1)c1ccc([N+](=O)[O-])cc1,-15,53,1,0,nt,i,2,7,eIF4H inh retest=2;PABP FP inh retest=-2
COc1cc(C2C(C(C)=O)=C(C)Nc3ncnn32)ccc1O (centres undefined),17,-12,-9,3,nt,i,5,15,
Cc1c(C(=O)NCCCN2CCOCC2)sc2nc(-c3ccc(F)cc3)cn12,-10,6,-1,3,6,i,8,-4,
COc1ccc(NC(=O)NCCc2ccc(Cl)cc2)cc1OC,nt,2,-1,-1,0,i,-6,0,
O=C(CSc1nc2ccccc2c(=O)n1-c1ccc(F)cc1)NC1CCS(=O)(=O)C1 (centres undefined),-20,nt,nt,nt,4,nt,0,4,
COc1cc(CO)cc(-c2cc(CO)cc(OC)c2OC)c1OC,-11,-6,-1,-2,nt,i,6,10,
NC(=NCCc1c[nH]c2ccccc12)NC(=O)c1ccc(Cl)cc1,-11,-16,43,8,-23,i,nt,nt,
CCOc1ccc(-c2csc(NC(=O)c3ccc(S(=O)(=O)N4CCc5ccccc5C4)cc3)n2)cc1,nt,15,nt,-4,27,i,3,-10,
Cc1ccc(C)c(NS(=O)(=O)c2ccc(OCC(=O)NCc3ccccn3)cc2)c1,-3,-3,-10,-2,-5,i,-1,-1,
CC(=O)NCc1ccc(S(=O)(=O)N/N=C/c2ccccc2)cc1,nt,2,nt,2,-9,i,1,5,
O=C(CNCc1ccccc1)NCCCN1CCCC1=O,-7,-6,-5,8,9,i,2,8,
COc1cccc(C(=O)NCCCn2ccnc2)c1,nt,-5,-13,8,-4,i,-4,4,
O=C(CSc1nnnn1C1CC1)Nc1ccc(S(=O)(=O)N2CCOCC2)cc1,-13,nt,nt,nt,5,nt,1,1,
O=S(=O)(Nc1ccc(-c2ccc3nncn3n2)cc1)c1ccccc1F,-19,nt,-5,nt,-4,i,-1,2,
Cc1cc(C)c(C)c(S(=O)(=O)N2CCC(C(=O)OCC(=O)NC3CCS(=O)(=O)C3)CC2)c1C (centres undefined),-5,nt,-10,nt,7,nt,0,0,
COC(=O)CN1C(=O)NC2(CCCc3ccccc32)C1=O (centres undefined),-4,6,-13,-2,-8,i,-4,0,
c1nc(N2CCC3(CC2)OCCO3)c2[nH]cnc2n1,-20,-2,-14,2,-24,i,1,-1,
Cc1cc(C)n(CC(C)O)c(=O)c1C#N (centres undefined),-17,3,nt,7,nt,i,-2,4,
CC(C)[C@@H](C(=O)N[C@@H](Cc1ccccc1)C(=O)O)N1C(=O)N2CCc3c([nH]c4ccccc34)[C@@]2(C)C1=O,9,4,-4,6,nt,i,4,4,
CCc1nnc(NS(=O)(=O)c2ccc(NC(=O)c3ccc([N+](=O)[O-])s3)cc2)s1,0,nt,nt,nt,3,nt,3,1,
COc1ccc(Nc2nnc(Cc3ccccc3)c(=O)[nH]2)c(OC)c1,-12,-3,21,-3,-21,i,5,3,
O=C(COC(=O)c1cc(-c2cccs2)nc2ccccc12)NC1CCS(=O)(=O)C1 (centres undefined),nt,-9,-6,-12,4,i,0,-1,
COc1cc(OC)cc(C(=O)NC(C(=O)Nc2ccc3c(c2)OCO3)C(C)C)c1 (centres undefined),-1,nt,nt,nt,-33,nt,-11,-6,
COc1cc(/C=C2\SC(=S)N(C(Cc3ccccc3)C(=O)O)C2=O)ccc1O (centres undefined),nt,26,9,46,8,i,-31,56,
COCCN1C(=O)N(c2ccc(OC)cc2)C(=O)C1CC(=O)Nc1cccc(F)c1 (centres undefined),4,6,nt,-7,-7,i,-3,-2,
COc1ccccc1NC(=S)NCc1cccs1,nt,-7,-12,0,3,i,-1,0,
CCCCNC(=O)COC(=O)c1cc(Br)ccc1Cl,nt,1,-11,-3,4,i,-4,1,
C=C(C)C(=O)N1CC2(CC(c3cccc(NC(=O)/C=C\C)c3)=NO2)C[C@H]1C(N)=O (some centres undefined),-7,12,1,5,-26,i,0,3,
O=C1CCCCC1Sc1nnc(Nc2ccccc2)s1 (centres undefined),-17,-5,-19,2,-19,i,3,2,

# Later entries.
SMILES,Yeast UUG start,PABP FP inh,CSC inhib,eIF4H inh,Env fusion inh,Rce1 inhib,MT1-MMP act inh,MT1-MMP act inh RFP,others
C/C(=N\NC(=O)c1c(Br)c(C)nn1C)c1cccc(NC(=O)c2ccccc2F)c1,nt,6,18,-6,-6,i,6,6,
CCOC(=O)CCP(=O)(O)C(O)c1ccccc1 (centres undefined),4,6,-1,2,nt,i,1,1,
Cn1c(=O)c(C(=O)CN2CCCCCC2)c(N)n(Cc2ccccc2)c1=O,nt,10,3,2,-11,i,-3,4,
COc1ccc(-c2c(C)n([O-])c3c([n+]2=O)CCCCC3)cc1,nt,7,5,-5,-2,i,6,7,
O=C(N/N=C/c1sc(N2CCCCC2)nc1-c1cccs1)C1CC1,nt,6,15,-12,-35,nt,1,7,
Cc1ccc(NC2=C(Cl)C(=O)OC2OC(=O)c2ccccc2C)cc1 (centres undefined),nt,-14,nt,-11,8,i,0,-5,
CC(=O)Nc1cccc(NC(=O)CSc2nc(=O)n(CCCN3CCOCC3)c3c2CCC3)c1,-11,nt,-2,nt,-10,i,-6,-1,
CCOC(=O)c1ccc(OCCOc2cccc(C)c2)cc1,-12,-1,-7,-7,-9,i,0,0,
O=Cc1cnc(N2CCN(c3ccccc3)CC2)s1,nt,-7,5,-1,-14,i,3,3,
CC(C)C[C@@H](CN)NC(=O)c1nc[nH]c1C(=O)N[C@@H](C)C(=O)CNC[C@H](C)NC(=O)c1nc[nH]c1C(=O)N[C@@H](Cc1ccccc1)C(=O)O,18,nt,nt,nt,18,nt,1,5,
CCCCCCCN1C2=NCCCN2c2ccccc21,-5,-1,nt,0,9,i,-4,-4,
CCC/C=N/NC(=O)c1ccc(F)cc1,nt,-4,-6,-2,6,i,-2,-4,
CCOC(=O)c1cnc(Nc2nc3ccccc3o2)nc1CN1CCN(C)CC1,-28,-1,nt,2,-12,nt,-7,-7,
Cc1ccc(S(=O)(=O)Oc2ccccc2/C=N/Nc2ccc(C(=O)O)cc2)cc1,-8,6,40,1,-6,i,-1,-1,
O=C(CN1C(=O)C2CC=CCC2C1=O)OCCN1C(=O)c2ccccc2C1=O (centres undefined),-19,12,-12,1,-50,i,-5,-9,
Cc1cc([N+](=O)[O-])ccc1NC(=O)c1csc(C)c1C,-8,8,-1,4,-23,i,0,-3,
Cc1ccccc1OCCC(=O)OCC(=O)NC1CC1,nt,nt,9,nt,-6,i,4,6,
COc1ccccc1C(=O)NC(C)c1cccc2ccccc12 (centres undefined),-10,-8,14,-3,11,i,-5,-2,
Cc1cc(C)cc(NC(=O)COC(=O)CC2CCCC2)c1,-1,nt,2,nt,2,nt,3,1,
COc1ccc2[nH]c3c(=O)n(/N=C/c4ccc(OC)c(CN5CCCC5)c4)c(C)nc3c2c1,-10,-30,2,-3,13,i,1,6,
CCOc1cc(NC(=O)c2cccs2)c(OCC)cc1NC(=O)c1ccccn1,nt,-12,2,8,-3,i,7,8,
N#CCN(CC#N)C(=O)C1c2ccccc2Oc2ccccc21,-7,-1,-6,8,-1,i,2,3,
Cc1cccc(-c2cc(N)n(-c3ccccc3)n2)c1,-27,0,nt,6,-109,i,2,-5,
Cc1occc1C(=O)N(Cc1nc(-c2ccccc2)no1)C(C)C,-6,-6,-1,-4,-4,i,0,3,
COc1ccc(N/C(=C(/C(Cl)=C(Cl)Cl)[N+](=O)[O-])n2nnc3ccccc32)cc1,nt,34,-3,19,nt,i,nt,nt,
C#CCOCCOCCOCCNc1nc(N2CCN(C(=O)[C@H](CCCCN)n3cc(C(N)CO)nn3)CC2)nc(N2CCN(C(=O)[C@H](CCC(=O)O)n3cc(C(N)Cc4ccc(O)cc4)nn3)CC2)n1 (some centres undefined),nt,12,nt,25,nt,i,nt,nt,
COc1ccc(CCNC(=O)CN(C)S(=O)(=O)c2ccc(OC)cc2)cc1,-7,-4,-10,4,21,i,3,0,
CC(C)C(=O)NCCc1nc(-c2ccccc2)no1,-3,nt,0,nt,-15,i,-1,-2,
Cc1ccc(S(=O)(=O)NCC(=O)OC(C)C(=O)NC(=O)NC2CCCCC2)cc1C (centres undefined),1,nt,-2,nt,nt,nt,3,5,
COc1ccc(NC(=O)CSc2nnc(-c3cccnc3)o2)cc1,-12,-2,0,-6,-18,i,2,1,
